gsp antag: antagonists of gsp mutant (McCune-Albright syndrome) | gsp-mutant cells, cAMP HTRF, 30 min; control for the full effect not named in the record | Potency, µM (series often up to 76.9 µM), for the others: at the highest dose activity change, negative = inhibition, usual class: inhibitors | 340,000 compounds, 0.4% hits | AID 624288; active = falling curve of any shape with a large fitted effect; inconclusive = falling curve, mostly with a smaller effect; inactive = flat or rising curve; cell line not stated here;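 note: intracellular cAMP measured with PDE inhibitor Ro 20-1724 present during compound exposure; potency is the fitted concentration of half-maximal effect; % is set by controls: 0 for no effect and ±100 for the full control effect; nearly all actives have a fitted effect of over 65% in size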
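Cells in G418 medium, seeded 16-24 h, 37C; buffer exchange to DPBS + 1 mM CaCl2, 0.5 mM MgCl2, 0.05% BSA; cpds in DMSO + […] (300 uM stock), 30 min 37C; HTRF cAMP detection.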
ClpP mod: qHTS Assay for Activators of ClpP | purified B. subtilis ClpP, FRET peptide cleavage, 20 min | Potency, µM (doses to about 57.5 µM), inactives show at the highest dose activity change, negative = active | 340,000 compounds, 1.9% hits | AID 651965, 2013; active = well fitted falling curve with a large enough effect; inconclusive = small, poorly fitted or top-dose-only effect; inactive = no such curve, though single readings can be large or run the other way; note: potency is the fitted concentration of half-maximal effect; the source files actives as falling curves though it sought activators and does not explain the sign; nearly all actives have a fitted effect of over 65% in size; many hits overshoot -100%
Target sequence (P80244 whole entry, looked up): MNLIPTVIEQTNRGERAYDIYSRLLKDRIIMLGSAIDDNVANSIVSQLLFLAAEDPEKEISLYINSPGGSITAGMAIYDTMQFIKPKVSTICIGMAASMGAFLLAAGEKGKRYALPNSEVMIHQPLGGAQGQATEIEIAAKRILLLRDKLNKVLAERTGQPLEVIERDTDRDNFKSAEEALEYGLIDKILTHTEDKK
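Purified B. subtilis ClpP, 10 microg/mL final in Tris/HCl pH8 with KCl, BSA, glycerol and Tween-20, cleaved an Abz/nitrotyrosine-quenched decapeptide. Fluorescence (ex 320, em 430) was read at 0 and 20 min at room temperature. Delta was normalized to 5.8 microM ADEP and DMSO/no-enzyme controls.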
TRPV1 potentiator: enhances activation of the human vanilloid receptor TRPV1 | Q8NER1 | TRPV1-expressing cells, Fluo-8 calcium influx, capsaicin EC20 potentiation; host cell line not named in the record; control for the full effect not named in the record | potentiation, % at 8.33 µM | 320,000 compounds, 0.02% hits | AID 540277; active means potentiation above 80%; inconclusive means 30% to 80%; inactive means below 30%; note: 0% is about no effect
Target sequence (Q8NER1 whole entry, looked up): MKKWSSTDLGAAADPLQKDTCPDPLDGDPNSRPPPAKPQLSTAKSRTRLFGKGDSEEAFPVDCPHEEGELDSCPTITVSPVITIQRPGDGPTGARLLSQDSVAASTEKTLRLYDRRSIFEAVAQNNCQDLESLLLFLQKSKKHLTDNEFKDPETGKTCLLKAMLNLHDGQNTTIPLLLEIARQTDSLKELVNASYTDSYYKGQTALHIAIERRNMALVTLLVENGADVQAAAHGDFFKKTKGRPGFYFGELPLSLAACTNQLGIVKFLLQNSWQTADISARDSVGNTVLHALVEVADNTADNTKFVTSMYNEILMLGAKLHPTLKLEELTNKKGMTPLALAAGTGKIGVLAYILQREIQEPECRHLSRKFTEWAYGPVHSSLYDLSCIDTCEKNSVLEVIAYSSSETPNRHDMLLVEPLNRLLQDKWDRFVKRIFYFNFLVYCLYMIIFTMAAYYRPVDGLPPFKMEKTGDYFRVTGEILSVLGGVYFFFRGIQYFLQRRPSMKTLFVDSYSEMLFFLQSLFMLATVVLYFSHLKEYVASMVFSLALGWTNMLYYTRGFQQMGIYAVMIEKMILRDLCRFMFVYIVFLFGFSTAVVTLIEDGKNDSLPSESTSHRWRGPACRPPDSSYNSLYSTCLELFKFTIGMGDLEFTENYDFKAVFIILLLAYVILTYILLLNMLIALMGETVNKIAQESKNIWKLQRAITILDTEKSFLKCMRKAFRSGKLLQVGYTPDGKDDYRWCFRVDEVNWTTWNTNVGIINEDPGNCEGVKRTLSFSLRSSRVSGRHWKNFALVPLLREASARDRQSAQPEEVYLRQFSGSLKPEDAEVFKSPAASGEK
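Cells expressing TRPV1 were dye-loaded with Fluo-8 and read kinetically: 10 s baseline, 3 min after compound (agonist portion), then 2 min after EC20 capsaicin (allosteric enhancer portion). Calcium-bound dye fluorescence at 480/520 nm.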
Menin-MLL FL inh: displaces fluorescein MLL peptide from human menin; Fluorescence polarization, fluorescein-MLL peptide displacement from menin; FP activity change, % at 61.4 µM; 290,000 tested, under 10 active; inconclusive = falling polarisation curve, or a change in total fluorescence; inactive = total fluorescence flat and polarisation flat or rising; no compound was filed as active; the % refers to the polarisation; negative = inhibition;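 note: % of control where 0% means no effect; inhibitors lower the polarisation; unlabelled MLL peptide was the positive control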
Sfp inh: blocks B. subtilis Sfp PPTase activity; AID 1490; Q9F4F7; Biochemical Sfp PPTase activity, qHTS; Potency, µM, for inactives: max response, negative = inhibition, actives largely listed as inhibitors; 310,000 compounds, 3.5% hits; active = well fitted inhibition curve with a large enough effect; inconclusive = small, poorly fitted or top-dose-only effect, or another doubt; inactive = no such curve, though single readings can be large or run the other way;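 note: the enzyme is Sfp with the accession as filed and its product quenches rhodamine fluorescence; potency is the fitted concentration of half-maximal effect; 0% = enzyme reaction without inhibitor and -100% = no enzyme wells; top concentration of the series not given in the record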
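Fluorescence-quenching assay: 15 nM Sfp-PPTase preincubated 15 min at room temperature with compound, then 5 uM rhodamine-CoA and 12.5 uM BHQ-2-labelled YbbR peptide added. Fluorescence (ex 525/em 598 nm) read at start and after 30 min; difference gives rate.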
gsp ag: activates gsp, the McCune-Albright syndrome mutation; gsp mutant cells, cAMP HTRF, 30 min; control for the full effect not named in the record; Potency, µM (series often up to 76.9 µM), without a hit: at the top dose activation (cAMP increase), actives largely listed as activators; 340,000 compounds, 0.13% hits; active = well fitted activation curve with a large enough effect; inconclusive = small, poorly fitted or top-dose-only effect, or another doubt; inactive = no such curve, though single readings can be large or run the other way; cell line not stated here;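 note: phosphodiesterase inhibitor Ro 20-1724 added with compounds to block cAMP breakdown; potency is the fitted concentration of half-maximal effect; nearly all actives have a fitted effect of over 60% in size; about a fifth of the inactives were tested at one dose only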
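Cells in DMEM/10% FBS with G418 were pretreated with compounds in DMSO plus […] (300 uM stock) for 30 min at 37C. cAMP was measured by HTRF (cAMP-d2 plus anti-cAMP antibody-K) after 30 min at room temperature.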
CtBP-E1A inh: CtBP/E1A binding inhibition | AlphaScreen GST-E1A/His-CtBP binding, 1536-well; hits give low values; control for the full effect not named in the record | activity change, % (test concentration not listed) | 340,000 compounds, 0.49% hits | AID 651724; in the data active means activity change below about -65%; inconclusive means about -30% to -65%; inactive means above about -30%; note: % is set by controls: 0 for no effect and ±100 for the full control effect
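Homogeneous bead-based format: GST-tagged E1A captured on glutathione donor beads, His-tagged CtBP on nickel acceptor beads; compounds precede bead addition by 2 h at 37 °C.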
Active calls of the source: *; ? = inconclusive; . = not tested or not shown; & = joins results of further samples; [ ] = dose if it differs, or a comment.

SMILES | gsp antag | ClpP mod | TRPV1 potentiator | Menin-MLL FL inh | Sfp inh | gsp ag | CtBP-E1A inh
CCOC(=O)C1CCN(CC(O)COc2ccc(C(=O)CC)cc2)CC1 (centres undefined) | 8% | 1.4% | -17 | 4.3 | -6% | ? | 16
Cc1cccc(C(=O)OC2CCN(C)CC2)c1 | -15% | 1.0% | 8 | 3.5 | 14% | 4% | .
Cc1c2cnn(CC(=O)NCc3ccccn3)c(=O)c2c(C)n1Cc1ccccc1 | 4% | -14% | 25 | -1.4 | -1% | -72%[inhibitor] | -7
Cc1cc(C)cc(OCC(=O)OCC(=O)NCc2cccs2)c1 | 6% | -2.2% | -17 | 2.1 | -5% | ? | -22
NS(=O)(=O)c1ccc(CCNC(=O)C2CCN(S(=O)(=O)c3cccc4cccnc34)CC2)cc1 | -4% | -1.7% | 7 | -4.0 | 3% | 13% | .
CC1=CC(=O)OC1Cc1ccncc1 (centres undefined) | 2% | 0.9% | 26 | -0.4 | 14% | 1% | 8
COC(=O)CC1SCCNC1=O (centres undefined) | 3% | -1.0% | 0 | 1.4 | 9% | 20% | 6
O=C(CCC1CCCN(C(=O)c2ccc(F)c(F)c2)C1)N1CCN(c2ccccn2)CC1 (centres undefined) | -1% | 18µM* | -1 | . | 7% | -23% | -4
COC(=O)N1C(=O)[C@](c2ccccc2)(C2CCCC2)N1C(=O)OC | -3% | -2.8% | 3 | -3.2 | 7% | -8% | 0
COc1cc(C(=O)Nc2nccs2)ccc1OCc1c(C)noc1C | -7% | -1.8% | -7 | 3.8 | -1% | -17% | ?
Cc1ccc(C(=O)/C=C/Nc2ccc(S(=O)(=O)Nc3cc(C)nc(C)n3)cc2)cc1 | -8% | 85% | -3 | -1.9 | 7% | -1% | 1
O=C1NC(=O)/C(=C/c2cccc(O)c2)N1 | -2% | 0.9% | 27 | 1.6 | 6% | ? | .
CSCC(C)N1CCC(CO)(CCc2ccccc2)CC1 (centres undefined) | 2% | . | 0 | -0.4 | 0% | 27% | 29
FC(F)(F)c1cccc(CON=C2CCN(c3ncc(C(F)(F)F)cc3Cl)CC2)c1 | -8% | -1.0% | 3 | 6.9 | 18% | 4% | 18
CCOc1ccc(C2C3=C(CCCC3=O)OC(N)=C2[N+](=O)[O-])cc1 (centres undefined) | 8% | 0.0% | 2 | -0.8 | -4% | -12%[15.4 µM] | 6
Cc1onc(-c2c(F)cccc2Cl)c1C(=O)N(C)CC(=O)Nc1cccc(F)c1 | -15% | 0.4% | -21 | . | . | 12%[15.4 µM] | 5
COCCNC(=O)COC(=O)c1nsc(Cl)c1Cl | -12% | 0.9% | ? | 0.8 | -1% | 0% | 1
Cc1cccc(NC(=O)CSCC(=O)Nc2ccc(S(=O)(=O)N3CCOCC3)cc2)c1 | -1% | . | 21 | . | . | 31%[15.4 µM] | 1
CCOC(=O)c1ccc(S(=O)(=O)NNC(=O)c2cccc(N(C)C)c2)cc1 | 0% | . | 7 | -1.9 | 13% | -10%[15.4 µM] | -4
Cn1c(NCc2cccc(Br)c2)nc2ccccc21 | 2% | -1.0% | 18 | 2.9 | 6% | 0% | -4

Another view of 5 compounds above.
Screens in order – gsp antag	ClpP mod	TRPV1 potentiator	Menin-MLL FL inh	Sfp inh	gsp ag	CtBP-E1A inh
FC(F)(F)c1cccc(CON=C2CCN(c3ncc(C(F)(F)F)cc3Cl)CC2)c1
 : -8%	-1.0%	3	6.9	18%	4%	18
CCOc1ccc(C2C3=C(CCCC3=O)OC(N)=C2[N+](=O)[O-])cc1 (centres undefined)
 : 8%	0.0%	2	-0.8	-4%	-12%[15.4 µM]	6
Cc1onc(-c2c(F)cccc2Cl)c1C(=O)N(C)CC(=O)Nc1cccc(F)c1
 : -15%	0.4%	-21	.	.	12%[15.4 µM]	5
COCCNC(=O)COC(=O)c1nsc(Cl)c1Cl
 : -12%	0.9%	?	0.8	-1%	0%	1
Cc1cccc(NC(=O)CSCC(=O)Nc2ccc(S(=O)(=O)N3CCOCC3)cc2)c1
 : -1%	.	21	.	.	31%[15.4 µM]	1

Next structures.
SMILES | gsp antag | ClpP mod | TRPV1 potentiator | Menin-MLL FL inh | Sfp inh | gsp ag | CtBP-E1A inh
COCCCn1c(Cc2csc(Nc3cccc(Cl)c3)n2)nnc1SCC(=O)OC | 3% | -0.1% | -3 | 12 | 25µM* | 8% | -12
NC(=O)c1ccccc1OCCOc1ccc(Br)cc1 | -3% | . | 0 | -3.8 | 2% | 7% | 16
O=C(CN(c1ccc(F)cc1)S(=O)(=O)c1ccccc1)NC1CCCCCC1 | 5% | -0.3% | ? | . | 24% | -8% | -4
O=CN1CCN(C(=O)c2cccc([N+](=O)[O-])c2)CC1 | -2% | . | -21 | -4.6 | 12% | -40%[inhibitor] | 4
COc1ccc(OCCSc2nnc(C(C)NC(=O)c3ccccc3F)n2C)cc1 (centres undefined) | 9% | . | 1 | 0.3 | 5% | -17%[15.4 µM] | 1
CNC(=O)c1cn(-c2ccc(Cl)cc2)c(=O)c2ccccc12 | ? | . | 1 | 1.3 | 7% | -3%[15.4 µM] | 5
CCCCC(=O)Nc1ccc(NC(=O)CC)cc1OC | 1% | -4.6% | -7 | -2.9 | -10% | 0% | 10
COc1ccc2[nH]c(=O)c(CN(CC3CCCO3)C(=S)Nc3ccc(C)cc3)cc2c1 (centres undefined) | -4% | ? | 6 | -3.2 | 11% | -111%[inhibitor] | .
COc1c(N2CCN(C(=S)Nc3ccccc3)C(C)C2)c(F)cc2c(=O)c(C(=O)O)cn(C3CC3)c12 (centres undefined) | . | . | -22 | 1.6 | 16% | . | .
O=C(Nc1nnc(S(=O)(=O)N2CCCCCC2)s1)c1ccccc1Br | -20% | -1.0%&-0.5% | ? | -3.9 | 21% | 29% | 2
CN(CC(=O)Nc1cccc(F)c1)C(=O)c1ccc(NC2CC2)c([N+](=O)[O-])c1 | -9% | -15% | -1 | . | . | ? | 4
O=C(c1cc2ccccc2oc1=O)N1CCN(Cc2ccc3c(c2)OCO3)CC1 | -7% | -9.2% | -9 | -0.8 | 4% | 15% | -2
Fc1cccc(F)c1-n1c(CN2CCOCC2)csc1=S | 1% | -0.6% | 13 | -0.6 | 7% | -34%[inhibitor] | .
CC1CCN(S(=O)(=O)c2ccc3c(c2)oc(=O)n3CC(=O)N2c3ccccc3CC2C)CC1 (centres undefined) | -3% | -6.6% | . | 5.7 | -2% | -1% | -25
CC(=O)Nc1ccc(S(=O)(=O)NCCC(=O)NCc2ccncc2)cc1 | 15% | 0.7% | 5 | . | . | 26% | 6
COc1cc(/C=N/N=C2/NC(=O)C(c3ccccc3)S2)ccc1O (centres undefined) | -7% | -11% | 6 | -1.0 | 1% | 26%[15.4 µM] | -19
Cc1ccc(NC(=O)CCc2nnc3ccc(N4CCC5(CC4)OCCO5)nn23)cc1F | 1% | -3.1% | -8 | -0.7 | -5% | ? | 2
Oc1oc(-c2ccc(Br)cc2)nc1/C=N/c1ccccn1 | 1% | . | -11 | 0.1 | 18% | -2%[15.4 µM] | 5
CCc1ccc(NC(=O)c2noc(C(C)C)c2[N+](=O)[O-])cc1 | 0% | 3.1% | -13 | -2.9 | 3% | 12% | 1
O=[N+]([O-])c1cccc(C(O)C23CN4CN(CN(C4)C2)C3)c1 (centres undefined) | 9% | -0.6% | -2 | 3.9 | -1% | -37%[15.4 µM] | 0
CC(C)(CNC(=O)CNC(=O)c1ccc(Cl)cc1Cl)N1CCOCC1 | 3% | -0.7% | 6 | . | . | 0% | 3
CNC(=O)C[C@H]1C(=O)N(CCc2ccccc2)C[C@@H]1c1ccc(OC)cc1 | . | -9.7% | . | . | . | 3% | -2
CCN(CC(=O)Nc1c(F)cccc1F)C(=O)COc1cccc2c1OC(C)(C)C2 | 7% | . | 3 | . | . | -17%[15.4 µM] | 6
Cc1ccc(C(=O)NCC(=O)NNC(=O)CN(C)S(=O)(=O)c2ccc(Cl)cc2)s1 | 12% | . | ? | . | . | 10%[15.4 µM] | 7
COC(=O)c1sccc1NC(=S)N1CCN(c2ccc(F)cc2)CC1 | -26% | -14% | 4 | -2.4 | -26% | -5% | -13
O=C1NCCCC1C(=O)N/N=C/c1cccc([N+](=O)[O-])c1 (centres undefined) | 6% | . | 12 | 5.0 | 20% | 2%[15.4 µM] | 0
O=C(CCn1c(=S)oc2ccccc21)Nc1cccc(O)c1 | -1% | . | 19 | -1.0 | 9% | -9%[15.4 µM] | -1
Cc1ccc(NC(=O)c2cc([N+](=O)[O-])ccc2NCc2cccnc2)cc1 | ? | 0.4% | -2 | -1.0 | 0% | 0% | -19
COc1cc(OC)c(OC)cc1CN1CCSCC1 | -1% | 0.5% | 4 | -0.1 | -4% | -14%[15.4 µM] | 3
O=C(COC(=O)c1cnccn1)Nc1cccc2ccccc12 | 13% | -0.5% | 3 | -7.6 | -2% | 0% | -1
CCOC(=O)c1c(CSc2ccccc2)oc2cc(Br)c(O)c(CN(C)C)c12 | 3% | . | -8 | -1.1 | -16% | -9%[15.4 µM] | -14
COc1cccc(-n2cc(C(=O)NCCCOC(C)C)c3ccccc3c2=O)c1 | 1% | -20% | -5 | -4.0 | 12% | 26% | -10
Cc1onc(-c2ccccc2Cl)c1C(=O)N(Cc1nc(-c2ccccc2)no1)C1CCCCC1 | -23% | 0.1% | 19 | -0.2 | -10% | -6% | -3
COc1cccc(-c2nc(=S)c3c(n2CCCO)CCCC3)c1 | 4% | -4.4% | 0 | 0.6 | -8% | 11% | 2
O=C(NCCN1CCCCC1)Nc1ccc(Cl)cc1 | 13% | . | 9 | -1.0 | 30% | -55%[inhibitor] | 2
COc1cccc(NC(=O)c2ccccc2Br)c1 | 2% | 0.1% | 26 | -0.5 | 31%[activator] | -15% | .
CC(CNS(=O)(=O)c1ccc(Br)cc1)CN(C)C (centres undefined) | 19% | 0.6% | 5 | -8.1 | ? | 20% | 5
CCc1noc(C)c1C(=O)NNC(=O)c1ccc(F)cc1 | 9% | 0.9% | 7 | . | . | 0% | 3

Screening results: PubChem BioAssay, National Center for Advancing Translational Sciences (NCATS)
